Marburg entry inh: Marburg virus entry inhibition; Marburg virus pseudotyped entry inhibition, cell reporter; control for the full effect not named in the record; about a third of the inactives were read at about 46 µM; Potency, µM (highest dose often 37.8 µM), for inactives: top-dose activity change, negative = inhibition, most hits filed as inhibitors; actives 1.8% (n = 300,000); AID 540276; active = well fitted inhibition curve with a large enough effect; inconclusive = small, poorly fitted or top-dose-only effect, or effect the other way; inactive = flat fitted curve, though single readings scatter; tested in HEK293 cells; about a fifth of its hits are not listed in these tables; also: % is scaled to controls: 0 for no effect and ±100 for the full control effect; luciferase read-out
2A StopGo: lowers the luciferase signal of an FMDV 2A StopGo reporter; actives 1.2% (n = 410,000); AID 1159524; Potency, µM (titrated, usually from 57.9 µM), for inactives: top-dose signal change, negative = less light; human cells with a luciferase reporter of 2A StopGo recoding; control for the full effect not named in the record; active = well fitted falling curve with a large enough effect; inconclusive = small, poorly fitted or top-dose-only effect; inactive = no such curve, though single readings can be large or run the other way; tested in HEK293T cells; also: % is scaled to controls: 0 for no effect and ±100 for the full control effect; nearly all actives have a fitted effect of over 45% in size; luciferase light after 4 h
Cruzain inh noDet: inhibitors of Trypanosoma cruzi cruzain without detergent; P25779; purified cruzain, Z-FR-AMC fluorescence, no detergent; Potency, µM, inactives show max response, negative = inhibition, actives largely listed as inhibitors; actives 2.3% (n = 200,000); AID 1476;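 also: plate controls were enzyme without inhibitor for no effect and buffer without enzyme for full effect; nearly all actives have a fitted effect of over 40% in size; top concentration of the series not given in the record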
Target sequence (P25779 123-467 limits assumed): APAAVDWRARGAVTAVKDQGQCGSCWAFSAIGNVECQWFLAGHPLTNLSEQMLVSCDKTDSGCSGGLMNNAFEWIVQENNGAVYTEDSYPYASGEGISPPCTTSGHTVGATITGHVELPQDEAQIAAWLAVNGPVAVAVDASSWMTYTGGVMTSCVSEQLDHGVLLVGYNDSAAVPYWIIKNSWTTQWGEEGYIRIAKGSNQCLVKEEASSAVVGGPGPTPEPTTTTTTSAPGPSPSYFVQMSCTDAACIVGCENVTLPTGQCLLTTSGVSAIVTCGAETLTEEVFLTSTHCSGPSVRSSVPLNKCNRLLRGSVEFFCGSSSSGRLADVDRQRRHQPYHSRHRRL
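Detergent-free condition (0.00005% Triton X-100) in acetate buffer pH 5.5 with DTT. 1.5 nM enzyme and compound were pre-mixed 15 min, then 2 uM Z-FR-AMC substrate added; reaction progress from fluorescence change between first and third reads (60 s).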
NS1 inh: influenza NS1 inhibition; S. cerevisiae slowed by influenza A NS1, growth recovery by OD600; actives 0.4% (n = 270,000); Potency, µM (top dose mostly 46.1 µM), for the others: at the top dose activity, positive = more growth; active means well fitted rising curve with a large enough effect; inconclusive means small, poorly fitted or top-dose-only effect; inactive means no such curve, though single readings can be large or run the other way; also: nearly all actives have a fitted effect of over 50% in size
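Compounds were scored for reversing the slow growth caused by influenza A NS1 in S. cerevisiae, measured by optical density at 600 nm. Assay medium contained 2% galactose at pH 6.0; NS1-free yeast of the same strain were the positive control.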
Lassa entry inh: Lassa virus entry inhibition. Lassa virus pseudotype entry inhibition, cell reporter; control for the full effect not named in the record. Potency, µM (titrated, usually from 37.9 µM), for the others: top-dose activity change, negative = inhibition, actives largely listed as inhibitors. actives 1.2% (n = 300,000). AID 540256; active means well fitted inhibition curve with a large enough effect; inconclusive means small, poorly fitted or top-dose-only effect, or effect the other way; inactive means flat fitted curve, though single readings scatter; tested in HEK293 cells; also: % is scaled to controls: 0 for no effect and ±100 for the full control effect; nearly all actives have a fitted effect of over 50% in size; luciferase read-out
RE007 growth inh: less growth of the S. pombe RE007 Vpr strain; actives 0.21% (n = 360,000); AID 651644; S. pombe RE007 Vpr strain, BacTiter-Glo ATP luminescence, 24 h; control for the full effect not named in the record; Potency, µM (highest dose often 92.2 µM), without a hit: top-dose activity change, negative = less growth; active = well fitted falling curve with a large enough effect; inconclusive = small, poorly fitted or top-dose-only effect; inactive = no such curve, though single readings can be large or run the other way;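 also: % is scaled to controls: 0 for no effect and ±100 for the full control effect; nearly all actives have a fitted effect of over 50% in size; the assay follows cell death caused by Vpr and the record does not say whether a fall means rescue or toxicity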
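Fission yeast strain RE007, carrying one chromosomally integrated HIV-1 vpr copy, was seeded at OD 0.01 in PMG+AL medium with 23 nL pinned compound. After 24 h at 30 °C and 99% humidity, viability was read by BacTiter-Glo luminescence.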
Cruzain inh Det: cruzain (T. cruzi) inhibition with detergent | P25779 | purified cruzain, Z-FR-AMC fluorescence, 0.01% Triton | Potency, µM, without a hit: max response, negative = inhibition, actives largely listed as inhibitors | actives 0.43% (n = 200,000);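 also: plate controls were neutral wells for no effect and buffer without enzyme for full effect; nearly all actives have a fitted effect of over 40% in size; top concentration of the series not given in the record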
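Read-out: AMC fluorescence (360 nm excitation, 450 nm emission), four reads over 2 min, first-to-third difference used. Conditions: cruzain 1.5 nM, Z-FR-AMC 2 uM, pH 5.5 acetate, 5 mM DTT, 0.01% Triton X-100.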
SARS PLpro yeast: inhibitors of SARS-CoV papain-like protease in yeast; S. cerevisiae expressing SARS-CoV PLpro, growth rescue; control for the full effect not named in the record; Potency, µM (highest dose often 32.9 µM), for the others: at the highest dose activity, positive = growth rescue; actives 0.19% (n = 330,000); AID 485353; active means well fitted rising curve with a large enough effect; inconclusive means small, poorly fitted or top-dose-only effect; inactive means no such curve, though single readings can be large or run the other way; also: 0% is about no effect; nearly all actives have a fitted effect of over 55% in size; growth read by luminescence after 48 h
* marks the source's active call; other numbers are inactive results; & = joins results of further samples; [ ] = dose if it differs, or a comment. Unless noted, calls follow the shape of the dose curve; as a rule, active = well fitted curve in the direction sought with a large enough effect; inconclusive = small, poorly fitted or top-dose-only effect, or another doubt; inactive = no such curve, though single readings can be large; an effect the other way counts as inactive or inconclusive. Potency is read from the fitted curve at half-maximal effect.

COc1ccc(C2SCC(=O)N2c2c(C)n(C)n(-c3ccccc3)c2=O)c(OC)c1 (configuration not stated) was read as Marburg entry inh 5%, 2A StopGo 9%, Cruzain inh noDet -4%, NS1 inh 6%, Lassa entry inh -2%, RE007 growth inh -2%, Cruzain inh Det 7.8% and SARS PLpro yeast -2%.
`C=CCn1c(SCCC#N)nnc1-c1ccncc1` gave Marburg entry inh -10%, 2A StopGo 9%, Cruzain inh noDet 6%, NS1 inh 1%, Lassa entry inh inconclusive, RE007 growth inh -4%, Cruzain inh Det 3.8% and SARS PLpro yeast 10%.
c1ccc(N2CCN(c3cnccn3)CC2)nc1 was read as Marburg entry inh 9%[46.1 µM], 2A StopGo 29%, Cruzain inh noDet 10%, NS1 inh -45%, Lassa entry inh inconclusive, RE007 growth inh -13%, Cruzain inh Det -0.4% and SARS PLpro yeast -1%.
Screening CC(=O)Nc1ccc(S(=O)(=O)N2CCN(c3nc(C)cc(C)n3)CC2)cc1 returned 2A StopGo 0%, NS1 inh -10%, RE007 growth inh 1% and SARS PLpro yeast -10%.
Screening CCN1CCN(CCCNC(=O)CCC(=O)N2CCOc3ccc(Cl)cc32)CC1 returned 2A StopGo -11%, NS1 inh -13%, RE007 growth inh -2% and SARS PLpro yeast 2%.
COc1ccc(CC2(CO)COc3ccccc3C2=O)cc1 (configuration not stated) was read as Marburg entry inh inconclusive, 2A StopGo -4%, Lassa entry inh -13% and RE007 growth inh -11%.
Screening Cc1cc(Cl)ccc1NC(=O)CSc1n[nH]c(N)n1 returned Marburg entry inh -7%, 2A StopGo -23%, Lassa entry inh 15%, RE007 growth inh 0% and SARS PLpro yeast 4%.
Cc1cccc(NC(=O)C(C)N2CC=C(c3ccccc3)CC2)c1 (configuration not stated) was read as Marburg entry inh -1%[46.1 µM], 2A StopGo -7%, NS1 inh -2%, Lassa entry inh -27%, RE007 growth inh -16% and SARS PLpro yeast -1%.
Nc1cc(=O)[nH]c(SCC(=O)NCC2CCCO2)n1 (configuration not stated) was read as Marburg entry inh 6%, 2A StopGo 0%, Cruzain inh noDet -5%, NS1 inh -11%, Lassa entry inh 9%, RE007 growth inh 8%, Cruzain inh Det 1.4% and SARS PLpro yeast 6%.
CCN(c1ccccc1)S(=O)(=O)c1ccc(Oc2ccc([N+](=O)[O-])cc2)nc1 was read as Marburg entry inh -26%, 2A StopGo -29%, Lassa entry inh inconclusive, RE007 growth inh -13% and SARS PLpro yeast -6%.
Cc1ccc2sc(C)[n+](CCCS(=O)(=O)[O-])c2c1 was read as Marburg entry inh 6%[46.1 µM], 2A StopGo -2%, Lassa entry inh 2%, RE007 growth inh 3% and SARS PLpro yeast 0%.
`Cc1c(NC(=S)NCc2ccc(F)cc2)cccc1[N+](=O)[O-]` gave Marburg entry inh -6%, 2A StopGo 39%[activator], Cruzain inh noDet 10%, NS1 inh -4%, Lassa entry inh -4%, RE007 growth inh -1%, Cruzain inh Det -6.3% and SARS PLpro yeast 2%.
CCCCNC(=O)CS(=O)Cc1nc(-c2cccc(C)c2)oc1C (configuration not stated) was read as 2A StopGo -2%, Cruzain inh noDet 4%, NS1 inh 0%, RE007 growth inh -5%, Cruzain inh Det -3.4% and SARS PLpro yeast 8%.
`Cc1ccc(S(=O)(=O)Nc2cccc(C(=O)NCCCN3CCOCC3)c2)cc1F` gave Marburg entry inh inconclusive, 2A StopGo -14%, Lassa entry inh 6%, RE007 growth inh 12% and SARS PLpro yeast 2%.
COc1cccc(NC(=O)Cn2c(=O)n(Cc3ccccc3)c(=O)c3c4c(sc32)CN(C(C)=O)CC4)c1 was read as Marburg entry inh -29%[46.1 µM], 2A StopGo -18%, Cruzain inh noDet inconclusive and Cruzain inh Det -5.2%.
For COCCc1nn2c(=O)cc(COC(=O)c3ccc(C(C)(C)C)cc3)nc2s1 the results were 2A StopGo inconclusive, Cruzain inh noDet inconclusive, Lassa entry inh 1%[46.1 µM] and Cruzain inh Det -10%.
Screening O=C(NC1CC1)c1ccc2c3c(cccc13)CC2 returned Marburg entry inh -16%, 2A StopGo 0%, Cruzain inh noDet -4%, NS1 inh 20%, Lassa entry inh -2%, RE007 growth inh -18%, Cruzain inh Det -4.0% and SARS PLpro yeast 9%.
For CCCC(C)NC(=O)CSc1nc(-c2ccccc2)cn1N (configuration not stated) the results were Marburg entry inh -10%[46.1 µM], 2A StopGo -11%, Lassa entry inh -23%, RE007 growth inh 5% and SARS PLpro yeast 1%.
For COc1ccc(CCNC(=O)c2c(O)nc3ccccn3c2=O)cc1 the results were Marburg entry inh -14%[46.1 µM], 2A StopGo 9%, Cruzain inh noDet -1% and Cruzain inh Det -4.2%.
COc1ccc(-c2noc(CN(Cc3nccn3C)C(C)C)n2)cc1 was read as Marburg entry inh inconclusive, 2A StopGo 4%, NS1 inh -2%, Lassa entry inh 4%, RE007 growth inh -25% and SARS PLpro yeast 3%.
Screening Cc1cccc(N2CCN(C(=O)c3ccc(S(=O)(=O)N(C)c4ccccc4)cc3)CC2)c1C returned Marburg entry inh inconclusive, 2A StopGo inconclusive, Lassa entry inh 4.5µM*, RE007 growth inh -2% and SARS PLpro yeast 3%.
COc1cc(C)c(CN2CCN(c3ncccn3)CC2)cc1C was read as Marburg entry inh inconclusive, 2A StopGo -12%, Lassa entry inh 16% and RE007 growth inh 2%.
For N#CCCN(C(=O)COC(=O)c1ccc2c(c1)NC(=O)CS2)c1ccc2c(c1)OCCO2 the results were Marburg entry inh 5%&15%, 2A StopGo inconclusive, Cruzain inh noDet -9%, NS1 inh -1%, Lassa entry inh 0%, RE007 growth inh -5%, Cruzain inh Det -11% and SARS PLpro yeast 8%.
Screening Cn1ncc(Br)c1C(=O)NC1C2CC3CC(C2)CC1C3 (configuration not stated) returned Marburg entry inh inconclusive, 2A StopGo -9%, Cruzain inh noDet -6%, NS1 inh -16%, Lassa entry inh -3%, RE007 growth inh -19%, Cruzain inh Det -1.0% and SARS PLpro yeast 25%.
`CCCCCc1cc(=O)oc2c(C(CCN3CCCCC3)c3ccc4c(c3)OCO4)c(OC)cc(OC)c12` (configuration not stated) gave 2A StopGo -21%, NS1 inh 8%, RE007 growth inh 2% and SARS PLpro yeast 0%.
`Cc1ccnc(NC(=O)c2cc(F)c(F)cc2Cl)n1` gave Marburg entry inh 6%[46.1 µM], 2A StopGo 8%, NS1 inh -84%, Lassa entry inh 3%, RE007 growth inh -4% and SARS PLpro yeast -8%.
Screening COc1ccc(Cl)cc1C(=O)NCC(C)C returned Marburg entry inh 0%, 2A StopGo 7%, Cruzain inh noDet -10%, NS1 inh -16%, Lassa entry inh 27%, RE007 growth inh 3%, Cruzain inh Det -3.4% and SARS PLpro yeast 1%.
For C#CCSc1nnc(CSc2nc3ccccc3s2)n1-c1ccccc1 the results were Marburg entry inh -14%, 2A StopGo -18%, Cruzain inh noDet -6%, NS1 inh -13%, Lassa entry inh -12%, RE007 growth inh 14%, Cruzain inh Det -4.7% and SARS PLpro yeast inconclusive.
CC1(C)Cc2c(sc3nc4n(-c5ccccc5)cnn4c(=O)c23)CO1 was read as Marburg entry inh 20%, 2A StopGo -27%, NS1 inh 1%, Lassa entry inh 15%, RE007 growth inh -25% and SARS PLpro yeast 1%.
COc1cc2nc3occc3c(OC)c2cc1OC was read as Marburg entry inh 5%, 2A StopGo -8%, Cruzain inh noDet 1%, NS1 inh -1%, Lassa entry inh inconclusive, RE007 growth inh -18%, Cruzain inh Det 0.7% and SARS PLpro yeast 0%.
`Cc1cccc(NC(=O)Cn2nnc(C(=O)NCc3ccco3)c2N)c1` gave Marburg entry inh 11%&11%[46.1 µM], 2A StopGo inconclusive, Cruzain inh noDet inconclusive, Lassa entry inh 0%[46.1 µM], RE007 growth inh -3%, Cruzain inh Det 3.8% and SARS PLpro yeast -2%.
CS(=O)(=O)N(Cc1ccc(Cl)cc1)c1ccc(C(=O)Nc2cccnc2)cc1 was read as Marburg entry inh inconclusive, 2A StopGo inconclusive, Cruzain inh noDet 25%, NS1 inh -8%, Lassa entry inh -5%, RE007 growth inh -13%, Cruzain inh Det -4.1% and SARS PLpro yeast 7%.
For Cc1ccccc1-c1noc(CNC(=O)COc2ccccc2)n1 the results were 2A StopGo -9%, NS1 inh -16%, RE007 growth inh -10% and SARS PLpro yeast 1%.
`O=C(CSc1ncn[nH]1)c1cccc([N+](=O)[O-])c1` gave Marburg entry inh inconclusive, 2A StopGo 0%, Cruzain inh noDet 2%, NS1 inh 8%, Lassa entry inh -11%, RE007 growth inh 2%, Cruzain inh Det -3.6% and SARS PLpro yeast 4%.
For COc1ccc(-c2csc(NC(=O)c3ccc(S(C)(=O)=O)cc3)n2)cc1 the results were Marburg entry inh 6%[46.1 µM], 2A StopGo 18%, NS1 inh 10%, Lassa entry inh 22%[46.1 µM], RE007 growth inh -2% and SARS PLpro yeast 0%.
`Cc1ccc(S(=O)(=O)N2CCN(c3ccccc3)CC2)cc1C(=O)NC1CCCCC1` gave 2A StopGo inconclusive, NS1 inh 11%, RE007 growth inh -14% and SARS PLpro yeast -2%.
`CCn1nc(C(=O)OCC(=O)Nc2nc(-c3ccc(OC)cc3)cs2)c2ccccc2c1=O` gave Marburg entry inh inconclusive, 2A StopGo -19%, Cruzain inh noDet inconclusive, NS1 inh 15%, Lassa entry inh inconclusive, RE007 growth inh 22%, Cruzain inh Det -3.0% and SARS PLpro yeast 19%.
O=C(CSc1ncnc2nc[nH]c12)c1ccc2ccccc2c1 was read as Marburg entry inh inconclusive, 2A StopGo 0%, Cruzain inh noDet -10%, NS1 inh -6%, Lassa entry inh -5%, RE007 growth inh 1%, Cruzain inh Det -5.6% and SARS PLpro yeast -18%.
`NNC(=S)NC1CCS(=O)(=O)C1` (configuration not stated) gave Marburg entry inh inconclusive, 2A StopGo -14%, NS1 inh -1%, Lassa entry inh 4%, RE007 growth inh 38% and SARS PLpro yeast 2%.
`CCOc1ccc(C(=O)NCc2nnnn2-c2ccc(C)c(C)c2)cc1OCC` gave 2A StopGo -16%, Cruzain inh noDet -4%, Lassa entry inh -1%[46.1 µM] and Cruzain inh Det 3.5%.

Screens from PubChem.
